# Sa growth 42C: S. aureus growth inhibition at 42 and 30 °C, primary screen, LtaS inhibitor project, RN4220, two temperatures | OD600, 20 h, 42 °C; active compounds read low | relative growth, % (test concentration not listed) | hit rate 0.53% among 170,000;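 active means growth at 42 °C up to 50% and 20 or more points under that at 30 °C, or under 10% at both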;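 further: 300 nL library stock went into each well; scaled to the means of positive and negative controls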
# HCMV UL50-53 inh: inhibitors of HCMV UL50-UL53 interaction, biochemical, HTRF | AID 1918969, 2023 | normalized percent inhibition | HCMV UL50-UL53 nuclear egress complex (human cytomegalovirus) | hit rate 0.15% among 190,000 | inhibition, % (concentration not given with the values);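 active means both replicates at 50% or more, plus weaker picks with an unusually low signal ratio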;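 further: stock transfer was 100 nL into about 20 µL; 0% = negative control wells and 100% = wells with untagged competitor protein; inactives centre near -12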
# GIV-Gai inh: inhibitors of GIV peptide binding to Galpha-i3, primary screen, biochemical, fluorescence polarization, FITC-GIV GBA peptide, rat Galphai3. Guanine nucleotide-binding protein G(i) subunit alpha-3 (Rattus norvegicus), P08753. 90 min; active compounds read low; scaled: aluminum fluoride 0%, vehicle 100%. percent of control (FP), % (test concentration not listed). hit rate 0.42% among 210,000. AID 1224905, 2016;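 active means replicate mean at 85% of control or lower, very high polarization wells dropped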;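 further: lower values mean more displacement of the GIV peptide from Galpha-i3; wells of about 15 µL received 100 nL stock; the first replicate is given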
# Target sequence (P08753 whole entry, looked up): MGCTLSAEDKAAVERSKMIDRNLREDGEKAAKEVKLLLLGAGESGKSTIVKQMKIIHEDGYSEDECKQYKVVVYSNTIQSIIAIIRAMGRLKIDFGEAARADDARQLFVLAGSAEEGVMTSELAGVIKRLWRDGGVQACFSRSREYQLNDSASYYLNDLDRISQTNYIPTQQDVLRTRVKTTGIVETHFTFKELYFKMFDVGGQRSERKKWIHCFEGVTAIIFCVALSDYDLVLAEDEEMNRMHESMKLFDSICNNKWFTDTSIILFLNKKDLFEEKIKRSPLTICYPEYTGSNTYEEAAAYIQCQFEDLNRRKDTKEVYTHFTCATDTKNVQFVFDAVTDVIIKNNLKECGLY
# Sa growth 42C second temp: recorded beside Sa growth 42C, whose call it bears; relative growth, %; measured here: growth at 30 °C;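 optical density after 20 h as mean of two plates; 100% = untreated growth and lower means inhibition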
# * hit, by the source's call; · = not tested or not shown; & = joins results of further samples.
1. CCSc1nn(CC(=O)Nc2c(C)cc(C)cc2C)c(N)c1S(=O)(=O)c1ccc(OC)cc1
2. CCOC(=O)Oc1ccc2c(=O)c(-c3ccc(OC)c(OC)c3)c(C(F)(F)F)oc2c1
3. COC(=O)c1nc2nc(C)c([N+](=O)[O-])c(=O)n2[nH]1
4. Cc1ccc(CCNC(=O)C2CC(=O)N(CCc3ccc(C)cc3)C2)cc1 (stereo not given)
5. O=S(=O)(c1ccc2c(c1)OCCO2)N1CCCC1c1cccc(F)c1 (stereo not given)
6. CC(C)(C)S(=O)(=O)c1ccsc1S(C)(=O)=O
7. Cc1cc(C)n(-c2cc(C(C)(C)C)nc3c(-c4ccc(F)cc4)c(C)nn23)n1
8. O=C(NCCSc1nnnn1-c1ccccc1)c1ccc(Cl)cc1
9. CCn1c(=O)cc(OCC(=O)NCc2ccccc2OC)c2ccccc21
10. N#Cc1nc(-c2ccc(S(=O)(=O)N3CCOCC3)cc2)oc1N1CCOCC1
compound no.	1	2	3	4	5	6	7	8	9	10
Sa growth 42C	·	·	·	127	·	105	·	89	98	·
Sa growth 42C second temp	·	·	·	87	·	100	·	70	87	·
HCMV UL50-53 inh	-28	-16	-25	·	-12	-4	-30	-2	4	-29
GIV-Gai inh	98	97	100	100	105	98	96	103	103	103

11. CCCNC(=O)Nc1ccc2c(c1)N(CC)C(=O)c1ccccc1S2
12. O=C(CCC(=O)N1Cc2ccccc2Oc2ncccc21)NCc1cccc(Cl)c1
13. Cc1ccc(C(=O)N2CC(=O)Nc3ccc(C)cc3C2c2ccccc2)cc1 (stereo not given)
14. COc1cccc(-c2ncnn2-c2sc3c(c2C#N)CCCCC3)c1OC
15. O=C(Nc1ccc2c(c1)OCO2)c1nnc(C(=O)N2CCCC(C(=O)NC3CCCCC3)C2)s1 (stereo not given)
16. O=C(CNC(=O)C1CCCCC1)Nc1nc2ccccc2[nH]1
17. COc1ccc(NC(=O)Nc2ccccc2Sc2ccc3nncn3n2)cc1OC
18. CN1CCN(C(=O)Cn2nc(-c3ccccc3)c3ccccc3c2=O)CC1
19. CCOC(=O)c1cc(-c2ccc(OC)cc2)n(CCC(=O)Nc2ccc(OC)cc2OC)c1C
20. COc1cc(C2SC(C)C(=O)N2CCc2ccccc2)cc(OC)c1OC (stereo not given)
compound no.	11	12	13	14	15	16	17	18	19	20
Sa growth 42C	118	112	·	88	·	87	·	91	103	89
Sa growth 42C second temp	74	86	·	87	·	84	·	85	86	84
HCMV UL50-53 inh	·	·	-10	-40	-21	-16	29	4	·	·
GIV-Gai inh	100	98	99	104	107	·	103	101	100	101

21. O=c1c(Nc2cccc(Cl)c2)c(-c2ccccc2)c1=O
22. COC(=O)C1=C(C)NC(C)=C(C(=O)OC)C1c1cccc(NC(=O)NCCCN2CCC(c3cccc(OC)c3)CC2)c1
23. Cc1cnc(=O)[nH]c1SCc1cccc2ccccc12
24. Nc1cc(-c2ccccc2)nn1S(=O)(=O)c1ccc(F)cc1
25. CCS(=O)(=O)c1ccc2oc(=S)n(CN(C)Cc3ccccc3)c2c1
26. Cc1cccc(OCc2nc(C)c(C(=O)Nc3nc(-c4ccc5c(c4)OCCCO5)cs3)s2)c1
27. COc1ccc(NC(=O)C2CC2)cc1OC
28. c1ccc(-c2cc3ncc4c(n3n2)-c2ccccc2OC4)cc1
29. COCCc1nn2c(=O)cc(COC(=O)c3cccs3)nc2s1
30. COc1ccc2c(c1)nc(CN1CCN(C)CC1)n2C
compound no.	21	22	23	24	25	26	27	28	29	30
Sa growth 42C	·	·	82	·	71	·	104	97	95	108
Sa growth 42C second temp	·	·	96	·	92	·	99	83	93	83
HCMV UL50-53 inh	-25	-33	-4	-40	-10	-18	-15	-13&-11	·	-13
GIV-Gai inh	114	104	105	101	·	105	99	106&100	104	98

# A different layout for 3 compounds above.
# Every second line gives: Sa growth 42C, Sa growth 42C second temp, HCMV UL50-53 inh, GIV-Gai inh
(28) c1ccc(-c2cc3ncc4c(n3n2)-c2ccccc2OC4)cc1
 : 97, 83, -13&-11, 106&100
(29) COCCc1nn2c(=O)cc(COC(=O)c3cccs3)nc2s1
 : 95, 93, ·, 104
(30) COc1ccc2c(c1)nc(CN1CCN(C)CC1)n2C
 : 108, 83, -13, 98

# (list continues)
31. COc1ccc(C)cc1NC(=O)CN1CCN(S(=O)(=O)c2ccc(Br)cc2)CC1
32. O=C(NCC(c1ccccc1)c1c[nH]c2ccccc12)c1ccc(C(F)(F)F)cc1 (stereo not given)
33. O=C1C(=O)N(CC2CCCO2)C(c2ccccc2)/C1=C(/O)c1ccccc1 (stereo not given)
34. COc1cccc(-c2nc(CSCC(=O)NCCc3ccc(Cl)cc3)c(C)o2)c1
35. CC(=O)NCCc1nc2cc(NC(=O)c3ccccc3C)ccc2n1C
36. CSc1c(C#N)c(-c2ccc(Cl)cc2)nn1C(=O)c1cccs1
37. O=C(COc1ccccc1-c1nnc(-c2ccccc2)o1)Nc1ccc(Br)cc1F
38. Cc1ccc(S(=O)(=O)N(/C(N)=N/c2nc(C)cc(C)n2)c2ccc(C)c(C)c2)cc1
39. CCC1CCCCN1C(=O)C1CCCN(S(=O)(=O)c2c(C)noc2/C=C/c2ccc(C)cc2)C1 (stereo not given)
40. Cc1cc(N2CCN(c3ccccc3)CC2)nc2ccccc12
compound no.	31	32	33	34	35	36	37	38	39	40
Sa growth 42C	84	102	111	80	·	97	101	120	·	·
Sa growth 42C second temp	87	70	75	90	·	85	91	102	·	·
HCMV UL50-53 inh	·	·	-28	6	1	-6	·	·	-5	0
GIV-Gai inh	101	99	101	111	106	105	99	102	102	104

# Whole records as entered above. Values in the order: Sa growth 42C | Sa growth 42C second temp | HCMV UL50-53 inh | GIV-Gai inh
# `Cc1ccc(S(=O)(=O)N(/C(N)=N/c2nc(C)cc(C)n2)c2ccc(C)c(C)c2)cc1` reads 120 | 102 | · | 102
# `CCC1CCCCN1C(=O)C1CCCN(S(=O)(=O)c2c(C)noc2/C=C/c2ccc(C)cc2)C1` (stereo not given) reads · | · | -5 | 102
# `CC(=O)NCCc1nc2cc(NC(=O)c3ccccc3C)ccc2n1C` reads · | · | 1 | 106

# (continued)
41. COc1ccccc1CN1C(=O)c2ccccc2C1C(=O)NCCCN1C(C)CCCC1C (stereo not given)
42. Cc1ccc(Cc2nnc(C(=O)NCCCN3CCC(Cc4ccccc4)CC3)o2)cc1
43. COc1ccc(Cn2c(CCC(=O)Nc3cccc(C)c3C)nc3cccnc32)cc1
44. CCCN(CCC)C(=O)Cn1c(CN(C)C(C)=O)nc2ccccc21
45. Cc1noc(C)c1CCNC(=O)c1[nH]nc2c1CCc1ccccc1-2
46. CCOC(=O)c1ccc(NC(=O)C2=C(C)C(=O)OC23CCN(C(C)=O)CC3)cc1
47. Cc1cc(C)cc(-n2nnc(-c3nc(-c4ccccc4F)no3)c2C)c1
48. N#CC1=C(N)Oc2n[nH]c(-c3ccccc3)c2C12C(=O)Nc1ccc(F)cc12 (stereo not given)
49. Cn1c(-c2nnc(SCC(=O)NCCc3nc4ccccc4[nH]3)o2)cc2ccccc21
50. CC(=O)Nc1ccc(C(=O)CSc2nnc3ccc4ccccc4n23)cc1
compound no.	41	42	43	44	45	46	47	48	49	50
Sa growth 42C	100	99	·	·	94	104	81	·	·	108
Sa growth 42C second temp	88	72	·	·	76	86	90	·	·	79
HCMV UL50-53 inh	-23	-1	-37	-12	-19	·	·	-16	-5	-14
GIV-Gai inh	102	102	98	98	99	100	107	102	96	108

51. C/C(=N\N(C=O)c1ccc(C(=O)O)cc1)C(=O)c1ccccc1
52. O=C(OCCOc1ccc(Br)cc1)c1ccc2c(=O)n3c(nc2c1)CCC3
53. CCN1CCN(C(=O)c2ccccc2SC)CC1
54. CC(NCCN1CCOCC1)C(=O)NC1CCCCC1 (stereo not given)
55. CCOc1ccc(CNCc2c(C(=O)O)c(C)n(Cc3c(F)cccc3Cl)c2C)cc1OC
56. COc1cc(OC)cc(C(=O)NC(=S)Nc2cccc(-c3nc4ccccc4o3)c2C)c1
57. COc1ccc(OC)c(C2NC(=O)NC(C)=C2C(=O)OC(C(F)(F)F)C(F)(F)F)c1 (stereo not given)
58. CCc1ccc(Oc2coc3cc(OC(=O)OC)ccc3c2=O)cc1
59. Cc1cc(S(=O)(=O)/N=C(\N)c2ccccn2)cc(C)c1F
60. Cc1ccc(CNC(=O)c2ccc(N3Cc4ccccc4Oc4ncccc43)s2)cc1
compound no.	51	52	53	54	55	56	57	58	59	60
Sa growth 42C	79	80	115	107	113	106	·	107	99	113
Sa growth 42C second temp	91	87	83	93	78	70	·	82	95	91
HCMV UL50-53 inh	-80	-36	-2	-8	-15	-12	-5	-7	0	-14
GIV-Gai inh	·	·	107	101	104	103	99	94	99	104

61. CCOC(=O)c1ccc(NCc2nc(N)nc(Nc3ccccc3C)n2)cc1
62. CCn1cc2nc(SCc3cccc(C(F)(F)F)c3)n(Cc3ccc(C)cc3)c(=O)c2n1
63. COc1ccc(NC(=O)CSC2=Nc3ccccc3C3=NC(CCC(=O)NC4CCCCC4)C(=O)N23)cc1 (stereo not given)
64. O=C(COc1ccc(Cl)cc1)NCc1nnc(SCC(=O)NCc2ccco2)o1
65. CCn1c2c(c3cc(Br)ccc31)CCC/C2=N\O
66. O=C1CCC(C(=O)OCc2ccccc2)N1 (stereo not given)
67. C=CCn1c(Cc2cccs2)nnc1SCc1c(Cl)cccc1Cl
68. COc1ccc(C2=Nc3ccccc3N(Cc3cccc(F)c3)C(=O)C2)cc1
69. Cc1[nH]c(=O)nc(SCc2ccc(Cl)c(Cl)c2)c1C#N
70. O=C(NCCc1ccccc1)c1ccc(Cl)nc1
compound no.	61	62	63	64	65	66	67	68	69	70
Sa growth 42C	139	76	121	95	118	79	110	·	91	109
Sa growth 42C second temp	71	85	88	84	99	91	82	·	60	104
HCMV UL50-53 inh	-16	·	·	-26	·	-2	-11	-33	-29	-1
GIV-Gai inh	·	94	105	100	98	·	107	102	·	101

71. N#C/C(=C\c1cccc(F)c1)c1nc(-c2cc3c(ccc4ccccc43)oc2=O)cs1
72. CC(C)(C)c1ccc(C(=O)Nc2ccc(-c3nnc4n3CCCCC4)cc2)cc1
73. CC1=C(C(=O)Nc2nc3ccccc3s2)C(c2ccccc2Cl)C2=C(CCCC2=O)N1 (stereo not given)
74. N=C1C(c2nc3ccccc3[nH]2)=C(O)CN1CCCN1CC(O)=C(c2nc3ccccc3[nH]2)C1=N
75. CCOc1ccc(CC(=O)NCc2ccc3[nH]c(C)cc3c2)cc1
76. O=C1CCCN1CCCNc1nn2nnnc2c2ccccc12
77. CCN(CC)CCNC(=O)c1ccc(NC(C)=O)cc1
78. COc1cccc(NC(=O)c2oc3ccc(S(=O)(=O)N4CCCCC4)cc3c2C)c1
79. CCCn1c(N2CCCCC2)nc2c1c(=O)[nH]c(=O)n2C
80. COc1cccc(NC(=O)CN(C)S(=O)(=O)c2ccc3nc(C)sc3c2)c1
compound no.	71	72	73	74	75	76	77	78	79	80
Sa growth 42C	103	104	·	85	129	103	90	94	111	95
Sa growth 42C second temp	88	99	·	84	87	93	97	84	87	78
HCMV UL50-53 inh	-36	·	-15	-19	·	-6	-32&6	-25	-1	-29
GIV-Gai inh	105	105	110	·	108	105	108	101	·	102

81. Cc1cc(C)cc(N2C(=O)N(CC(=O)c3ccc(Br)cc3)c3ccccc3S2(=O)=O)c1
82. COC(=O)c1c(C)sc(-c2c(-c3ccc4c(c3)OCCO4)[nH]c3c2c(=O)n(C)c(=O)n3C)c1O
83. CC(CCc1ccccc1)NC(=O)CCS(=O)(=O)c1ccc2c(c1)NC(=O)CO2 (stereo not given)
84. Cc1cc(NC(=O)C2CCCN(S(=O)(=O)c3cccc4nsnc34)C2)ccc1Br (stereo not given)
85. Fc1ccc(Nc2nc(SCc3cccc(Cl)c3)nc3ccccc23)cc1
compound no.	81	82	83	84	85
Sa growth 42C	113	91	·	106	92
Sa growth 42C second temp	105	90	·	85	89
HCMV UL50-53 inh	·	-5	4	-8	·
GIV-Gai inh	108	207	102	110	102

# Four compounds picked at random from the list so far, as already listed:
83. CC(CCc1ccccc1)NC(=O)CCS(=O)(=O)c1ccc2c(c1)NC(=O)CO2 (stereo not given)
84. Cc1cc(NC(=O)C2CCCN(S(=O)(=O)c3cccc4nsnc34)C2)ccc1Br (stereo not given)
85. Fc1ccc(Nc2nc(SCc3cccc(Cl)c3)nc3ccccc23)cc1
82. COC(=O)c1c(C)sc(-c2c(-c3ccc4c(c3)OCCO4)[nH]c3c2c(=O)n(C)c(=O)n3C)c1O
compound no.	83	84	85	82
Sa growth 42C	·	106	92	91
Sa growth 42C second temp	·	85	89	90
HCMV UL50-53 inh	4	-8	·	-5
GIV-Gai inh	102	110	102	207

# Screens: PubChem, ICCB-Longwood Screening Facility, Harvard Medical School
